Screening results deposited in PubChem BioAssay by ICCB-Longwood Screening Facility, Harvard Medical School.
MgrA DNA FP – S. aureus MgrA activity modulators, primary screen, biochemical, S. aureus Newman, fluorescence polarization; 84,000 compounds, 0.13% hits; inhibition, %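 (about 10 µg/mL by stock and volumes)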; AID 602314, 2012; MgrA-DNA binding;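 active = above 50% in either of two replicates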;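 note: 0% = protein plus DNA without compound and 100% = DNA alone without protein; higher means less MgrA bound to DNA so lower polarization; one replicate is shown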
S aureus helic – inhibitors of S. aureus replicative helicase, primary screen, biochemical, fluorescence unwinding readout; purified S. aureus helicase, fluorescence unwinding assay; about half of the hits fall short of the stated cut; inhibition, %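 (tested at about 80 µM)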; 120,000 compounds, 0.05% hits; AID 485395, 2010;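 active = both duplicates at 50% or more, or one of them with a favoured structure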;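 note: 0% = mean of negative control wells and 100% = mean of positive control wells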
Active calls of the source: *; . = no result given. The list is partial; rates above refer to the full screens.

Sequence of screens: MgrA DNA FP	S aureus helic
> CC(=O)Nc1cccc(NC(=O)Cn2c(-c3cccnc3)ccc(C#N)c2=O)c1
→ -0.2	11.0
> CCN1C(=O)/C(=C/C=C2\Oc3ccccc3N2CC)SC1=S
→ 0.5	-8.0
> Cc1cc(Br)ccc1NC(C)C(=O)N1CC(C)OC(C)C1 (stereo not drawn)
→ .	11.0
> OC1(c2ccccc2F)CCN(CCN2CCCCC2)CC1
→ 1.1	-4.0
> COc1ccc(N2C(S)=C(C#N)C(=O)NC2c2ccccc2)cc1 (stereo not drawn)
→ -0.4	1.0
> Brc1ccc(COc2ccc(-n3cnnn3)cc2)cc1
→ .	11.0
> CCCCCn1c(=O)[nH]c2cc(C(=O)N3CCN(C4CCCCC4)CC3)ccc2c1=O
→ .	-31.0
> COc1ccc(CCNS(=O)(=O)c2cc(C(F)(F)F)cc(C(F)(F)F)c2)cc1OC
→ 0.9	.
> CCN(CC)C(=O)c1ccc(C(C)(C)C)s1
→ -2.3	.
> O=C(O)CCC(=O)N1N=C(c2c(-c3ccccc3)c3cc(Cl)ccc3[nH]c2=O)CC1c1ccccc1F (stereo not drawn)
→ 0.3	.
> COc1ccc(NC(=O)Cn2cc(C(=O)c3cccs3)c3ccccc32)cc1
→ .	-20.0
> CC(=O)Nc1ccc(OCC(=O)N(CC(C)C)C2CCS(=O)(=O)C2)cc1 (stereo not drawn)
→ .	-3.0
> O=C1N[C@H](Cc2ccccc2)C(=O)N2CCC[C@@H]12
→ -5.4	5.0
> CCCCn1nnnc1COC(=O)c1sc2cc(Cl)ccc2c1Cl
→ .	19.0
> CCC1(C)Cc2c(C#N)c(N)n(N)c(=S)c2CO1 (stereo not drawn)
→ 1.9	13.0
> O=c1sn(-c2ccc(F)c(Cl)c2)c(=O)n1C1Cc2ccccc2C1
→ 13.5	.
> CC(C)NC(=O)CCC1CCCCC1
→ .	-9.0
> Cc1ccsc1C(=O)OCC(=O)N1C(C)CCCC1C (stereo not drawn)
→ .	-5.0
> Cc1ccc(NC(=S)NCc2cccnc2)cc1
→ -1.5	.
> CCOC(=O)c1c([N+](=O)[O-])c(C)[nH]c(=O)c1C#N
→ -2.2	.
> O=C(c1cccs1)c1coc2ccc(O)c(CN3CCCCC3)c12
→ .	-11.0
> CN(C)S(=O)(=O)N(CC(N)=O)c1ccccc1
→ 4.0	2.0
> CC(C(=O)Nc1ccc(S(=O)(=O)Nc2ncccn2)cc1)N1C(=O)c2ccccc2C1=O (stereo not drawn)
→ .	28.0
> O=C(COc1ccc(-c2ccccc2)cc1)NC1CCOC1=O (stereo not drawn)
→ .	3.0
> CSc1ccccc1NS(=O)(=O)c1ccccc1C(F)(F)F
→ .	-10.0
> O=C(Nc1cc(C(F)(F)F)cc(C(F)(F)F)c1)C(Sc1ccc(Cl)cc1)c1ccccc1 (stereo not drawn)
→ 1.5	.
> Cc1ccccc1N1C(=O)c2ccc(C(=O)OCc3nnc(-c4cccs4)o3)cc2C1=O
→ .	-2.0
> CCn1c(=O)c2ccccc2n(CC(=O)NCCc2ccc(OC)c(OC)c2)c1=O
→ 4.8	9.0
> COc1ccc(NC2SC(=O)N(Cc3ccccc3)C2=O)cc1 (stereo not drawn)
→ -1.2	-2.0
> CC(=O)N1N=C(N)SC1(C)c1ccccc1 (stereo not drawn)
→ -0.5	2.0
> O=C(NC1CCCCCC1)C1CCN(C(=O)Cc2ccccc2)CC1
→ -2.5	8.0
> Cc1cc(/C=C2\N=COC2=O)ccc1C(F)(F)F
→ -0.9	.
> Cc1ccc(S(=O)(=O)Nc2ccc3nc(C)sc3c2)cc1
→ .	-9.0
> Cc1ccccc1NC(=O)c1cc2c(C)nc3ccccc3c2o1
→ .	6.0
> CCN(CC)C(=O)C1CC(c2ccc(OC)cc2)=NO1 (stereo not drawn)
→ .	6.0
> Cc1cccc2nc3c(nc12)-c1ccccc1C3=Nc1ccccc1
→ -2.7	12.0
> Cc1nn(Cc2ccccc2Cl)c(C)c1C(=O)N(CC1CCCO1)C1CCS(=O)(=O)C1 (stereo not drawn)
→ .	1.0
> N#Cc1ccc(C=Nc2ccc(C(N)=O)cc2)cc1
→ -1.2	4.0
> N#CC1=C(Nc2ccc(Br)cc2)CCC1
→ 1.4	-2.0
> CCc1cccc(NC(=O)C2CCN(c3nnc(-n4cccc4)s3)CC2)c1
→ .	-14.0
> O=C(OCC(=O)N1c2ccccc2Sc2ccccc21)C1CC(=O)N(Cc2ccco2)C1 (stereo not drawn)
→ .	-4.0
> CC(=O)O[C@]1(C(C)=O)CCC2C3C=C(Cl)C4=CC(=O)CC[C@]4(C)C3CC[C@@]21C (stereo partly drawn)
→ 1.6	.
> CCc1ccc(NC(=O)CCC2=NS(=O)(=O)c3ccccc3N2)cc1
→ .	7.0
> Cc1cccn2c(=O)c(/C=C3\SC(=S)N(C(C)C)C3=O)c(N3CC(C)OC(C)C3)nc12 (stereo not drawn)
→ .	-97.0
> O=c1c(=N\O)/c(=N/O)c(=O)c2ccccc12
→ .	26.0
> Cc1oc(-c2ccc(Cl)cc2)nc1CN1CCC(C(=O)NC(C)CCc2ccccc2)CC1 (stereo not drawn)
→ -0.7	21.0
> CC(C)C1Nc2ccccc2S(=O)(=O)N1 (stereo not drawn)
→ .	-8.0
> Cc1cccnc1NCC(O)COc1ccccc1 (stereo not drawn)
→ 0.2	-1.0
> CSc1ccccc1NC(=O)CN(C)Cc1cc(=O)n2ccsc2n1
→ .	12.0
> O=C(Oc1cccc(Nc2ncnc3ccccc23)c1)c1cccnc1
→ .	3.0
> Cc1[nH][nH]c(=O)c1C(c1cccc(Cl)c1)C(C#N)C#N (stereo not drawn)
→ 3.8	-7.0
> NC(=O)C1CC(=O)N(c2ccc(OCC(=O)N3CCCC3)cc2)C1 (stereo not drawn)
→ -3.8	-2.0
> COc1ccc2c(c1)c(C(=O)OCCN(C)C)c(C)n2C
→ .	39.0
> COc1ccc(/C(O)=C/c2nc3ccc(C(=O)N4CCN(c5cccc(C)c5C)CC4)cc3[nH]c2=O)cc1
→ .	-92.0
> CN1C(=O)C(=Cc2ccccc2OCc2ccccc2)C(=O)N(C)C1=S
→ 14.1	-1.0
> CC(=O)OCc1ccccc1S(=O)(=O)c1ccccc1COC(C)=O
→ 0.5	.
> O=C(Nc1ccc(Br)cc1)c1cc(=O)c2ccccc2o1
→ .	-4.0
> CCOC(=O)Nc1nc2ccc(OC)cc2s1
→ -0.6	1.0
> Cc1cc2c(n1-c1ccc(C(=O)NCCc3cccs3)cc1)CCCC2
→ .	-1.0
> CCOc1ccc(NC(=O)NC(=O)N(C(C)C)S(C)(=O)=O)cc1
→ .	-14.0

Remaining list, next part.
Sequence of screens: MgrA DNA FP	S aureus helic
> CCC(=O)N1CCc2cc(Br)cc(S(=O)(=O)CCC(=O)N(C)c3ccc(OC)cc3OC)c21
→ .	8.0
> FC(F)(F)c1cnc(SCc2nc3ccccc3o2)c(Cl)c1
→ .	8.0
> Cc1ccc2oc(C(=O)N(Cc3ccccc3)C3CCS(=O)(=O)C3)c(C)c2c1 (stereo not drawn)
→ .	15.0
> CCCCOC(=O)CSc1nc(N)c(C#N)c(-c2ccc(OC)cc2)c1C#N
→ -1.4	.
> CC(=O)OC[C@H]1O[C@@H](Oc2ccccc2)[C@H](OC(C)=O)[C@@H](OC(C)=O)[C@H]1OC(C)=O
→ .	1.0
> O=c1cc(-c2ccccc2)n(-c2ccccc2)cn1
→ 2.9	14.0
> FC(F)(F)c1ccc(-c2noc(-c3ccc(Cl)nc3)n2)cc1
→ 1.3	.
> O=C(COc1ccccc1)Nc1ccn(Cc2ccccc2)n1
→ -0.9	3.0
> CCN1C(=O)S/C(=C\c2cccc(Cl)c2)C1=O
→ -1.1	.
> O=C(O)c1cc(-c2ccco2)on1
→ .	11.0
> Cc1ccc(CSCc2ccc(C(=O)O)o2)cc1
→ .	4.0
> CCCCn1c(=O)c2ccccc2c2ccccc2c1=O
→ 1.6	-11.0
> CC(C)C(=O)Nc1ccc2[nH]c(=O)[nH]c2c1
→ 6.6	15.0
> CCN(CC)C(=O)c1sc2nc(-c3cccs3)cc(C(F)(F)F)c2c1N
→ 4.3	-13.0
> NS(=O)(=O)c1ccc(Sc2cccs2)s1
→ -0.2	.
> O=C(CNC(=O)c1ccccc1)NC1CCCC1
→ .	16.0
> COc1cccc(C(=O)NCCn2c(C)cc3ccccc32)c1
→ .	24.0
> O=C(C1=NN(c2ccccc2)C(=O)CC1)N1CCN(c2ncccn2)CC1
→ .	-7.0
> Cc1ccc(NC(=O)CC(c2ccccc2)c2ccccc2)cc1C
→ 0.5	8.0
> CC(OC(=O)c1ccncc1)C(=O)NC1CCCC1 (stereo not drawn)
→ .	9.0
> Cc1c(C(=O)NCCN2CCOCC2)sc2nc(-c3ccccc3)cn12
→ .	2.0
> CC(=O)Nc1ccc(/C=N/NC(=O)CN2CCSCC2)cc1
→ -0.1	11.0
> Cc1ccc(NC(=O)Cn2cccc2)cc1
→ 1.2	2.0
> O=C(/C=C/c1cccs1)N1CCCCCC1
→ 0.8	-7.0
> CCn1c(Cc2ccccc2)nnc1SC(C#N)Cc1ccc(C)cc1 (stereo not drawn)
→ .	6.0
> CCc1c(C)nc2cc(-c3ccc(Cl)cc3)[nH]n2c1=O
→ -2.5	9.0
> CCOC(=O)C1=C(C)NC(=O)NC1/C=C/c1ccccc1 (stereo not drawn)
→ -3.3	8.0
> O=C(NCCc1nc2ccccc2[nH]1)c1cccs1
→ 0.5	-4.0
> CCc1c(C)nc2nc[nH]n2c1=O
→ 1.6	10.0
> CC(C)(C)NC(=O)COc1ccc2oc3c(c2c1)CCCC3
→ .	-5.0
> COc1ccc(-c2nnc3c4ccccc4c(C)nn23)cc1S(=O)(=O)N1CCN(CCO)CC1
→ .	11.0
> CN1C(=O)C2C(c3ccc(N(C)C)cc3)NN(Cc3ccccc3)C2C1=O (stereo not drawn)
→ .	21.0
> CCN(C(=O)c1cc2c(C)nc3ccccc3c2o1)c1cc(Cl)ccc1OC
→ .	-1.0
> CNC(=O)NC(=O)CSc1nnc(-c2ccccc2)o1
→ .	-14.0
> CCN(C(=O)CN1C(=O)COc2ccccc21)c1nc2c(C)cccc2s1
→ .	-5.0
> Cc1nc(-c2ccc(S(=O)(=O)N3CCN(Cc4ccccc4)CC3)s2)cs1
→ -0.8	.
> COCCNC(=O)c1ccccc1NC(=O)c1cccc(C)c1
→ 0.2	6.0
> CO/N=C(/C(=O)N[C@@H]1C(=O)N2C(C(=O)[O-])=C(C[N+]3(C)CCCC3)CS[C@H]12)c1csc(N)n1
→ -0.2	.
> CCC(=O)Nc1ccc2nc(C)[nH]c2c1
→ 3.9	-1.0
> O=C(OCc1ccc(F)cc1)c1ccccc1F
→ -0.1	6.0
> Nc1ncnc2nc(SCc3nc4ccccc4c(=O)n3-c3cccc(C(F)(F)F)c3)[nH]c12
→ 0.0	.
> O=C(O)C1C2C=CC3(O2)C1C(=O)N(Cc1ccccc1)C3Cc1ccccc1 (stereo not drawn)
→ .	3.0
> Cc1c(C(=O)N2CCN(S(=O)(=O)c3ccccc3)CC2)oc2ccc(Br)cc12
→ .	6.0
> COc1ccc2nc(SC)nc(C)c2c1
→ 0.7	8.0
> O=C(O)CCc1nc(-c2ccc(C(F)(F)F)cc2)no1
→ -1.7	.
> CCOc1ccccc1C(=O)Nc1ccc(-n2nncc2C(C)(C)C)cc1
→ .	6.0
> Cc1ccc(S(=O)(=O)CCC(=O)O)cc1
→ -1.3	6.0
> O=C(C1=Cc2sc3c(c2CS1)CCCC3)N1CCC2(CC1)OCCO2
→ .	-26.0
> N#CCCN(Cc1ccccc1)C(=S)Nc1ccc(F)cc1
→ -0.8	.
> NC(=S)NN1C2CSC1CS2
→ -0.6	.
> Cc1ccc2ncc(-c3ccc4c(N)c(C)ccc4n3)cc2c1
→ -1.4	12.0
> C#CCn1c(C2CC(=O)N(c3ccccc3Br)C2)nc2ccccc21 (stereo not drawn)
→ .	-18.0
> CCOC(=O)c1cnc2ccc(Cl)cc2c1Nc1ccc(S(=O)(=O)Nc2ncccn2)cc1
→ 2.0	-1.0
> COc1cccc(C2(c3ccc(O)cc3)CCCC2)c1
→ 4.6	2.0
> CCCc1cc(=O)n2c(-c3ccc(Cl)cc3)csc2n1
→ .	18.0
> CC1CCN(S(=O)(=O)N2CCCC(C(=O)NCCCN3CCN(Cc4ccccc4)CC3)C2)CC1 (stereo not drawn)
→ .	-12.0
> O=C1CCC(=O)N1c1ccc(S(=O)(=O)N2CCN(c3nccc(C(F)(F)F)n3)CC2)cc1
→ .	-17.0
> COc1cc(/C=C2\C(=O)NC(=O)N(C(C)(C)C)C2=O)cc(OC)c1O
→ 4.5	3.0
> O=C(Nc1ccccc1)N(CC1CCCO1)C1CCS(=O)(=O)C1 (stereo not drawn)
→ .	-35.0
> CN(Cc1ccccc1)S(=O)(=O)c1ccc(CN2C(=O)c3cccnc3C2=O)cc1
→ -2.2	-1.0

Full records from above.
Shown for O=C(O)CCc1nc(-c2ccc(C(F)(F)F)cc2)no1 → MgrA DNA FP: -1.7; S aureus helic: .
Shown for O=C(C1=Cc2sc3c(c2CS1)CCCC3)N1CCC2(CC1)OCCO2 → MgrA DNA FP: .; S aureus helic: -26.0

(next part)
Sequence of screens: MgrA DNA FP	S aureus helic
> NC(=S)N1CCN=C1c1ccccc1
→ 0.0	15.0
> Cc1nn(-c2ccccc2)nc1C(=O)Nc1cc(Cl)cc(Cl)c1
→ 1.6	.
> O=C(Nc1nc(-c2ccc(Oc3ccccc3)cc2)cs1)c1sc2ccccc2c1Cl
→ -0.4	.
> O=C(O)CC1S/C(=N\N=C2CCCCCCC2)N(c2ccccc2)C1=O (stereo not drawn)
→ .	29.0
> CCOC(=O)c1c(NC(C)=O)sc2c1CCCC2O (stereo not drawn)
→ .	4.0
> COc1cccc(CNC(=O)c2cnn(-c3cccc(F)c3)c2-n2cccc2)c1OC
→ .	22.0

Single entries from the results shown.
`O=C(Nc1nc(-c2ccc(Oc3ccccc3)cc2)cs1)c1sc2ccccc2c1Cl` in MgrA DNA FP: -0.4
`O=C(O)CC1S/C(=N\N=C2CCCCCCC2)N(c2ccccc2)C1=O` (stereo not drawn) in S aureus helic: 29.0
